High-throughput results deposited in PubChem BioAssay by National Center for Advancing Translational Sciences (NCATS).
Rango release inh: inhibitors of RanGTP-induced Rango-importin beta complex dissociation; Potency, µM (highest dose often 46.1 µM), for inactives: at the top dose activity change, negative = inhibition; O95149+P62826; 340,000 tested, 0.071% active; Biochemical FRET Rango-importin beta, RanGTP-induced dissociation; active means falling FRET ratio curve, often poorly fitted, with flat reads before Ran was added; inconclusive means other falling curves, or compound fluorescence or quenching; inactive means flat or rising ratio curve;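 also: potency is read from the fitted curve at half-maximal effect; % of control where 0% means no effect; nearly all actives have a fitted effect of over 45% in size; -100% = wells without RanGTP and RCC1; the record marks most hits as doubtful in a second field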
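Compounds preincubate 5 min with complex of recombinant Rango and importin beta in PBS with 1 mM DTT. Ran (0.6 uM) loaded with 2 mM GTP plus 0.2 uM RCC1 starts dissociation; FRET is recorded 45 min later.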
GLA inh pH 4.5: inhibitors of human alpha-galactosidase A at pH 4.5; 230,000 tested, under 10 active; P06280; activity change, negative = inhibition, % at 105 µM; purified enzyme, 4-MU-alpha-Gal fluorescence, pH 4.5; inconclusive = small, poorly fitted or top-dose-only inhibition, or a rising curve; inactive = flat fitted curve, though single readings scatter; no compound was filed as active;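 also: 0% = full activity with enzyme and -100% = basal without enzyme; dose as in the result columns while the protocol names 77 µM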
Rango complex inh: Rango-importin beta binding inhibition. Potency, µM (titrated, usually from 92.2 µM), for inactives: at the highest dose inhibition of complex formation. 340,000 tested, 0.031% active. AID 540263. Rango CFP/YFP FRET sensor + importin beta, 45 min; active = rising FRET ratio curve, often small or poorly fitted; inconclusive = mostly compound fluorescence or quenching in the first reads; inactive = flat curves in all reads;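 also: potency is read from the fitted curve at half-maximal effect; 0% = DMSO wells and 100% = buffer wells lacking importin beta; nearly all actives have a fitted effect of over 15% in size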
Target sequence (Q14974 whole entry, looked up): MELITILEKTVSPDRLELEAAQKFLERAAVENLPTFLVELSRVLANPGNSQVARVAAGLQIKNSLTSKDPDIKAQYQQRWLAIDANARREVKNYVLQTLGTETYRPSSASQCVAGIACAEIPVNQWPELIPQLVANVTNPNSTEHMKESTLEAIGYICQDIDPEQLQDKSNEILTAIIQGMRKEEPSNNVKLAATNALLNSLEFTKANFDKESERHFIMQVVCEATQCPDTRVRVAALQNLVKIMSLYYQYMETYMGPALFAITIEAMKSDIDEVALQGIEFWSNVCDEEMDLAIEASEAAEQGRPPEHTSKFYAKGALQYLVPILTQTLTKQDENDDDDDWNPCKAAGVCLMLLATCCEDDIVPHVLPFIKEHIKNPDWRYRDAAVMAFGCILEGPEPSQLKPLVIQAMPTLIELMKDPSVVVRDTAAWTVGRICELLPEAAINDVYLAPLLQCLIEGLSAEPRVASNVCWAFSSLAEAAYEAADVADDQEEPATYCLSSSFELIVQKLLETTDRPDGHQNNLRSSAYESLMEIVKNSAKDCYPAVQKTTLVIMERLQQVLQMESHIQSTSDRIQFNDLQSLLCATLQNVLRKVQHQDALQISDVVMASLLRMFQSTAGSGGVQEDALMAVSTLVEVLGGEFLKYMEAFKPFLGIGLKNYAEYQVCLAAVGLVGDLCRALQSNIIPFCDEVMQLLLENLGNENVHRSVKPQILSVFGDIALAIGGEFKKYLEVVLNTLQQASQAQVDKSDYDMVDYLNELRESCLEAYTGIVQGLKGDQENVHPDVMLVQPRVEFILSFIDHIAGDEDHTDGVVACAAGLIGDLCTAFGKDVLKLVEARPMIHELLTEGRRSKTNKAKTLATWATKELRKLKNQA
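Inhibition scored from the CFP 486 nm/YFP 530 nm FRET ratio 45 min after adding 0.125 microM importin beta to 50 nM Rango biosensor preincubated 5 min with compound (room temperature, PBS with DTT, Tween-20, BSA). No-importin wells as positive control.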
miR-21 FLuc: miR-21 reporter, rising signal. HeLa miR-21 FLuc reporter, luciferase, 48 h. Potency, µM (highest dose often 38.3 µM), without a hit: top-dose reporter change, positive = more light. 340,000 tested, under 10 active. AID 2288; active = well fitted rising curve with a large enough effect; inconclusive = small, poorly fitted or top-dose-only effect; inactive = no such curve, though single readings can be large or run the other way;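 also: % of control where 0% means no effect; miR-21 action dims this reporter so a rising signal means less miR-21 action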
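Compounds were titrated across several concentrations (up to approximately 40 uM) and incubated 48 hours with HeLa miR-21-FLuc reporter cells (miR-21 target sequence downstream of FLuc, endogenous miR-21). Readout was firefly luciferase luminescence after lytic detection reagent.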
* marks the source's active call; other numbers are inactive results; ? = inconclusive; . = not tested or not shown; [ ] = remark or other dose.

SMILES	Rango release inh	GLA inh pH 4.5	Rango complex inh	miR-21 FLuc
COc1ccc(-c2cc(C3CCN(Cc4ccc([N+](=O)[O-])cc4)CC3)[nH]n2)cc1	?	-8	-0.8%	-3%
O=[N+]([O-])c1ccc(Sc2ccc(Cl)c(Cl)c2)nc1	28%	2	-0.4%	-11%
O=C(OCN1C(=O)c2ccccc2C1=O)c1ccc(Cl)nc1	33%	.	-0.4%	-4%
O=C(CCc1nnc(CCCCc2ccccc2)o1)N1CCC(N2CCCC2)CC1	-4%	3	0.5%	-2%
COC(=O)/C=C1\SC(=Nc2ccc(OC)cc2)NC1=O	6%	1	4.9%	0%
CCOC(=O)CN[C@H]1CCC2C3CC=C4C[C@@H](O)CC[C@]4(C)C3CC[C@@]21C (stereo partly specified)	-2%	.	3.1%	.
CSc1nc2cc(Oc3cccc(Cl)c3Cl)c(Cl)cc2[nH]1	-10%	?	-2.1%	25%
COc1ccc(S(=O)(=O)NCCc2nnc3ccc(SCc4cccnc4)nn23)cc1	8%	2[21.1 µM]	0.1%	-2%
CCn1nc(C)c(CNC(=O)c2cc(COc3ccc(C)nc3)on2)c1C	9%	.	0.7%	5%
O=C(O)c1cccc(NCc2cccnc2)c1	?	-10	-0.2%	-10%
Cc1nn(C)cc1C=NCCOCc1ccccc1	25%	-17	1.2%	-3%
CCN1CCN(c2nc3c(c(=O)[nH]c(=O)n3C)n2CCCSc2ncccn2)CC1	-5%	-5	2.6%	-4%
O=C(CCCO)c1ccc2c(c1)OCCO2	7%	11	1.5%	-21%
COc1ccc(CCNC(=O)c2csc3c2CCCC3)cc1OC	-1%	4	-2.7%	-5%
CCCCCCCN1CCC(=O)N([C@H](CO)Cc2ccccc2)CC1	1%	.	-3.4%	3%
CCOc1ccc(NS(=O)(=O)c2cc3c4c(c2)C(C)C(=O)N4CCC3)cc1 (stereo unspecified)	8%	.	3.6%	0%
Cc1ccc(OCCC(=O)OCC(=O)N2c3ccccc3NC(=O)C2(C)C)cc1	-7%	.	-1.2%	.
Cc1ccccc1N1C(=O)CC(N2CCC(C(N)=O)CC2)C1=O (stereo unspecified)	21%	-2	2.0%	0%
COc1ccc(CNc2nc3c(c(=O)n(Cc4ccc(Br)cc4)c(=O)n3C)n2C)cc1	-6%	-6	4.5%	-4%
COC(=O)c1c(NC(=O)C2CC=CCC2C(=O)O)sc2c1CCCCC2 (stereo unspecified)	2%	.	-0.6%	-7%
O=C(NCc1ccc(Cl)cc1)c1ccc2nc[nH]c2c1	?	-5	-2.3%	-17%
O=C1Nc2ccc(S(=O)(=O)N3CCCCCC3)c3cccc1c23	?	0	?	-19%
COc1ccccc1NC(=O)/C(=C/c1cccc([N+](=O)[O-])c1)c1ccccc1	-3%	-8	?	-2%
CCN1CCN(CCOc2cccc(Cl)c2Cl)CC1	10%	0	3.1%	-11%
C=CCc1c(C)nc(SC)nc1Nc1ccccc1	1%	4	-0.1%	-1%
Cc1cc(C(=S)N2CCOCC2)c(C)n1-c1ccc(Cl)cc1	-11%	3	-1.0%	5%
O=C(NC1CC1)c1ccc(NC(=O)C2CCCCC2)cc1	3%	.	-2.2%	.
CC1CC(C)CN(C(=O)COC(=O)c2ccc3c(c2)OCO3)C1 (stereo unspecified)	30%	.	-0.4%	.
CCN(CC)CCNC(=O)CNC(=O)c1nn(-c2ccc(OC)cc2OC)c(=O)c2ccccc12	6%	.	-0.6%	0%
N#CC(C#N)=C1C=C2C=C(N3CCCCCC3)CCC2CC1 (stereo unspecified)	?	-6	?	7%
C#CCN(CC=C)C(=O)c1cccc(OC2CCN(S(C)(=O)=O)CC2)c1	2%	.	-1.4%	-3%
O=C(Cn1nnc2ccccc2c1=O)NC1CCCCC1	29%	.	2.0%	-41%
Cc1cc(C)n(-c2nc3ccccc3nc2N2CCN(S(=O)(=O)c3ccc(F)c(C)c3)CC2)n1	5%	-1	2.0%	-4%
CCOP(=O)(OCC)/C(C#N)=C/c1c[nH]c2ccccc12	11%	-20	0.2%	1%
CCOc1ccc(OCC(=O)OCC(=O)N2CCN(C(=O)c3ccco3)CC2)cc1	-1%	.	0.9%	.
O=C(Nc1ccc(OC(=O)c2cccs2)cc1)c1ccco1	9%	-11	-0.3%	-7%
O=C(CSc1nc2ccccc2c(=O)n1CC1CCCO1)NCc1ccccc1 (stereo unspecified)	6%	.	4.1%	-2%
CC(C)CNC(=O)c1c(F)c(F)c(F)c(F)c1F	-6%	-1	-4.5%	2%
CCCCSc1nnc(CCCCCNC(=O)OC(C)(C)C)o1	-5%	-1	-2.4%	0%
C=CCn1cc(C(=O)NCc2ccc3c(c2)OCO3)c(=O)c2cc(S(=O)(=O)N(CC)CC)ccc21	16%	6	0.2%	-14%

Of the compounds above, these contain a nitro group on carbon:
SMILES	Rango release inh	GLA inh pH 4.5	Rango complex inh	miR-21 FLuc
COc1ccc(-c2cc(C3CCN(Cc4ccc([N+](=O)[O-])cc4)CC3)[nH]n2)cc1	?	-8	-0.8%	-3%
O=[N+]([O-])c1ccc(Sc2ccc(Cl)c(Cl)c2)nc1	28%	2	-0.4%	-11%
COc1ccccc1NC(=O)/C(=C/c1cccc([N+](=O)[O-])c1)c1ccccc1	-3%	-8	?	-2%

New compounds follow:
SMILES	Rango release inh	GLA inh pH 4.5	Rango complex inh	miR-21 FLuc
COc1ccc([N+](=O)[O-])cc1NC(=O)C(C)OC(=O)Cn1[nH]c(=O)c2ccccc2c1=O (stereo unspecified)	-10%	.	0.3%	.
COCC(C)n1c(C)cc(C(=O)Cn2nc(C(=O)O)c3ccccc3c2=O)c1C (stereo unspecified)	1%	2	0.0%	-8%
O=C(CCn1ccc2cc(S(=O)(=O)N3CCCC3)ccc21)NCCc1ccccc1	15%	.	-0.3%	-1%
COc1ccccc1-c1nnc2sc(COc3ccc(F)cc3)nn12	11%	-4	-1.1%	-10%
Cc1ccc(N(CC(=O)Nc2ccc(-c3nc4ccc(C)cc4s3)cc2)S(C)(=O)=O)cc1	-7%	13	-3.8%	-46%
COCCNC(=O)C(c1cccc(OC)c1)N(C(=O)Cn1nnc2ccccc21)c1cccnc1 (stereo unspecified)	7%	-5	0.1%	-1%
CCS(=O)(=O)c1ccc2oc(Nc3ccccc3Br)nc2c1	12%	-7	-5.3%	-76%
CCn1c(C(C)NC(=O)Cc2ccccc2)nc2ccccc21 (stereo unspecified)	2%	9	0.0%	-3%
Cn1ncc(Cl)c(Oc2ccc(Cl)cc2)c1=O	0%	-9	3.6%	-11%
[O-][n+]1cccc2c(Br)cc(Br)c(O)c21	1%	-8	-0.6%	-10%
Cc1ccc(C(=O)C2C(c3cccs3)NC(=O)NC2(O)C(F)(F)F)cc1 (stereo unspecified)	5%	6	-2.8%	1%
CC(C)Oc1ccc(C(=O)NCC(=O)O)cc1	-6%	2	-2.4%	5%
COCC1OS(=O)(=O)NC(CC(=O)SC(C)(C)C)C1C (stereo unspecified)	0%	.	-4.6%	-1%
COc1cccc(C2NC(=O)NC(C)=C2C(=O)Nc2cccc(C)c2C)c1 (stereo unspecified)	-9%	-16	?	0%
Cc1nc2ccc(NC(=O)c3nn(C(C)C)c(=O)c4ccccc34)cc2s1	2%	-5	0.2%	-27%
CC(CCc1ccccc1)NC(=O)COC(=O)c1cccc2ccccc12 (stereo unspecified)	18%	-7	-1.0%	-4%
COc1ccc2nc(-c3ccco3)c(-c3ccco3)nc2c1	?	7	?	-9%
C/C(=N\N1CCN(c2ccccc2)CC1)c1ccc(O)cc1	4%	.	1.4%	-14%
CC1CCC(NC(=O)c2cc3c(s2)CCCC3)CC1 (stereo unspecified)	4%	.	3.6%	.
CCN(CC)c1ccc(/C=N/OCC(=O)N2CCCc3ccccc32)cc1	-1%	-8	2.2%	-6%
CCCCCCNC(=O)C(C#N)c1nc2ccccc2nc1N1CCCC1 (stereo unspecified)	?	-3	?	-3%
COc1cc(CNc2ccc3[nH]c(=O)[nH]c3c2)ccc1OCc1ccc(C)cc1	-23%	.	-4.4%	-40%
O=[N+]([O-])c1ccc(CSc2nnc(SCc3ccccc3)s2)cc1	-5%	2	-0.9%	-3%
O=c1c2ccccc2nc2n1C(CSc1ccc(Cl)cc1)CN2 (stereo unspecified)	-11%	3	5.2%	-2%
COc1ccc(O)c(-c2cc(-c3cccs3)[nH]n2)c1	13%	-1	-8.0%	-27%
O=C1c2ccccc2C(=O)N1CCC1(O)C(c2ccccc2)=Nc2ccccc21 (stereo unspecified)	10%	.	1.4%	.
CCOC(=O)C1=NN(c2ccc(OC)cc2)C(c2ccccc2)CC1=O (stereo unspecified)	-9%	3	?	-2%
Cc1cc2oc(=O)cc(-c3ccccc3)c2c(C)c1-c1ccc(OC(F)(F)F)cc1	30%	-2	3.3%	.
O=C(c1ccc(COc2ccccc2[N+](=O)[O-])o1)N1CCCCC1	1%	-11	1.4%	-52%
O=C(NC1CCCCC1)N1CCNCC1	11%	.	1.2%	3%
CCC(=O)Nc1cccc(NC(=O)c2cc3ccccc3o2)c1	1%	4	-3.4%	-34%
Cc1cc(=O)oc2cc(OCC(=O)N3CCOCC3)c(Cl)cc12	?	.	?	.
Cc1cc(C)c(OCC(=O)N2CCN(c3ncc(C(F)(F)F)cc3Cl)CC2)c(C)c1	2%	.	-3.6%	-4%
Nc1nc(SCC(=O)N2CCN(S(=O)(=O)c3ccc(Cl)cc3)CC2)n[nH]1	-8%	1	0.0%	0%
COC(CNc1ncnc2c1cnn2C)OC	5%	-4	-1.7%	-3%
CC(C)NC(=O)N(C)C[C@H]1Oc2ccc(NC(=O)c3ccncc3)cc2C(=O)N([C@H](C)CO)C[C@@H]1C	-8%	.	-0.7%	.
c1ccc(C2C3=C(Nc4ncnn42)c2ccccc2CCC3)cc1 (stereo unspecified)	0%	4	0.2%	5%
CC(C)NC(=O)C1CCN(C2CCN(Cc3nc4ccccc4s3)CC2)CC1	7%	2	-1.3%	2%
CCCOc1ccccc1-c1nc(SCCC(=O)O)n[nH]1	0%	-2	-6.6%	-2%
O=C(OCc1cccc([N+](=O)[O-])c1)c1ccncc1	12%	4	3.7%	1%
O=C(COc1ccc(Cl)cc1)Nc1ccc(N2CCN(C(=O)c3ccco3)CC2)cc1	-9%	-21	4.0%	24%
O=C(Nc1ccccn1)C(NS(=O)(=O)c1cccc2nsnc12)c1ccccc1 (stereo unspecified)	2%	-1	-1.0%	0%
CN(C)S(=O)(=O)c1cc(NC(=O)CN2C(=O)NC3(CCCc4ccccc43)C2=O)ccc1Cl (stereo unspecified)	-19%	-8	5.7%	2%
CCCn1c2c(c(O)c(C(=O)NCCCN(CC)CC)c1=O)CCCC2	0%	0	-0.8%	-14%
O=C(O)CCCCCN1C(=O)C(O)=C(C(=O)/C=C/c2ccccc2)C1c1ccc2c(c1)OCO2 (stereo unspecified)	-29%	-6	?	-2%
CC(NC(=O)COC(=O)c1ccc2c(=O)n3c(nc2c1)CCCCC3)c1ccccc1 (stereo unspecified)	-3%	.	-2.8%	.
COc1ccc(CNC(=O)COC(=O)c2ccc3c(c2)OCCO3)cc1	8%	3	?	3%
Oc1ccccc1-c1nc2c3ccccc3c3ccccc3c2[nH]1	2%	24	-1.0%	10%
N=C1SC(CC(=O)Nc2ccc([N+](=O)[O-])cc2)C(=O)N1c1ccccc1 (stereo unspecified)	-12%	-1	-0.4%	23%
Cc1ccc(C(=O)N/C(=C/c2cccnc2)C(=O)NCc2ccco2)cc1	17%	11	-1.2%	-10%

Only part of the results is shown; count on the stated rates, not on these rows.
